RGS16-Gao HTS = modulators of RGS16 binding to Galphao, primary screen, biochemical, human proteins, multiplexed bead flow cytometry; bead-based flow cytometry RGS16-Galphao binding, fluorescence; actives lie on both sides; binding response (% of control), % at 10 µM; hit rate 0.38% among 220,000; AID 1441, 2008;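 active = below 25% or above 175%, edge rows of some plates excepted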;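 also: Galphao activated by GDP with aluminum fluoride before binding; 100% = wells without compound and 0% = beads without RGS; some results beyond the cut were filed as inactive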
Target sequence (O15492 whole entry, looked up): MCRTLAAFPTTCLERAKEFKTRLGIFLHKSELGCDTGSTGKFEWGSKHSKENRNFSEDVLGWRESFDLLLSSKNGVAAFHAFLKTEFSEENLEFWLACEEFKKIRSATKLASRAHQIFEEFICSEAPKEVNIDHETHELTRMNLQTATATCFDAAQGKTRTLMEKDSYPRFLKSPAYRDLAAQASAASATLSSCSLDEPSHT
Target sequence (P09471 whole entry, looked up): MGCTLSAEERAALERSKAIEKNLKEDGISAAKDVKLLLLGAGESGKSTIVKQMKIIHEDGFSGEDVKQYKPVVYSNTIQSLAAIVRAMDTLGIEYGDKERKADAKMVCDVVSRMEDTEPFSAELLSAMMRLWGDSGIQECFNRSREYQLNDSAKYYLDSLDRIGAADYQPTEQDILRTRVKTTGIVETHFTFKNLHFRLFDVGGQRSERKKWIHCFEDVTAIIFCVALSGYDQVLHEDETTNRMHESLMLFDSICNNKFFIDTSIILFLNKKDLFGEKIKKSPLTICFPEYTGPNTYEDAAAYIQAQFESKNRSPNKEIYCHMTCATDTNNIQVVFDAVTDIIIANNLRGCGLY
GALR2 ag = GALR2 receptor agonists, primary screen, cell-based. Galanin receptor type 2 (Homo sapiens), O43603. GALR2-expressing cells, agonist activation read-out. activation, %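 (tested at 5 µM)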. hit rate 0.48% among 140,000;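 active = above mean plus 3 SD of all compounds, about 5% in these data, not always enough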;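 also: 0% = vehicle buffer wells and 100% = reference agonist at full effect; tested in CHO reporter cells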
Target sequence (O43603 whole entry, looked up): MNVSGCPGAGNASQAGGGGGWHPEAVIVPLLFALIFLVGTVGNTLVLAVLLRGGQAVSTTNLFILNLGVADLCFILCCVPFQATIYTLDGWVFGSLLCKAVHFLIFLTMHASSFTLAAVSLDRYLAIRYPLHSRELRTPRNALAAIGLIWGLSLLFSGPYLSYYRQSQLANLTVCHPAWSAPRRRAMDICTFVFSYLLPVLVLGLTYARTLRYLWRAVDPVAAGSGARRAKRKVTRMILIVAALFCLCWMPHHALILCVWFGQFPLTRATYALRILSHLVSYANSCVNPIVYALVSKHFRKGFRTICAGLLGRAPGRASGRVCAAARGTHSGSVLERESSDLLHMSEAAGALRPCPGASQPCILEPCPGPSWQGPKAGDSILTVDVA
INS promoter inh = inhibitors of insulin promoter-driven GFP, primary screen, imaging, TRM-6 cells (human fetal islet line), eGFP reporter, cell count. reporter expression induced with tamoxifen. inhibition, % at 2 µM. hit rate 0.9% among 130,000;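 active = inhibition above the mean plus 3 SD, with well images judged a real hit on visual review, cut at about 60% in these data, passing the limit was not always enough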
HSV replic up = enhancers of HSV replication in host cells, fold increase, host cell viability | HSV replication augmentation in cells | maximum fold increase | hit rate 0.005% among 220,000;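 active = peak rise of 1.5-fold or more in the series; tested in PC3 cells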;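 also: first round at 10 µM; read as green reporter fluorescence; hits show the peak of a series up to 25 µM; 1 = signal of infected wells without compound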
PKD1 kinase inh = inhibitors of human PKD1 kinase, biochemical, fluorescence polarization; PKD1 kinase fluorescence polarization assay; inhibition, %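 (about 10 µM by stock and volumes)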; hit rate 0.056% among 200,000; AID 797, 2007;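 active = inhibition of 50% or more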;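 also: controls were vehicle for no effect and a reference inhibitor for full effect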
INS promoter inh cell count = second read-out of INS promoter inh, no call of its own (marks repeat the call); normalized cell count, %; measured here: cell count, toxicity; reference of the scale not given here;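 cells exposed to compound for 48 h; stained nuclei by imaging scaled within each plate; lower means fewer cells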
HSV replic up primary fold = recorded beside HSV replic up, whose call it bears; fold increase; compound at 10 µM; measured here: primary screen fold increase 10 uM; tested in PC3 cells;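 GFP signal in the first replicate; 1 = infected wells without compound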
* hit, by the source's call; & = joins results of further samples.

Screening O=C1N/C(=N\N=C\c2cccs2)SC1Cc1cccc(Cl)c1 (stereo unspecified) returned RGS16-Gao HTS 96.5, GALR2 ag 0.5, HSV replic up inactive, PKD1 kinase inh -1.3 and HSV replic up primary fold 0.71.
`O=C(COC(=O)CCNS(=O)(=O)c1cccc(C(F)(F)F)c1)NC(=O)NC1CCCCC1` gave RGS16-Gao HTS 88.9, GALR2 ag -1.8, HSV replic up inactive, PKD1 kinase inh 3.6 and HSV replic up primary fold 1.01.
`Cc1ccc2oc(=O)n(CC(=O)N3CCOCC3)c2c1` gave RGS16-Gao HTS 97.9, HSV replic up inactive and HSV replic up primary fold 0.99.
Screening COc1ccc(CCNC(=O)COc2ccc(S(=O)(=O)NCC(C)C)cc2Cl)cc1OC returned RGS16-Gao HTS 98.9, GALR2 ag 0.0, HSV replic up inactive, PKD1 kinase inh 1.3 and HSV replic up primary fold 1.04.
Screening O=C(c1ccccc1-c1ncc[nH]1)N1CCc2c([nH]c3ccccc23)C1c1ccccn1 (stereo unspecified) returned RGS16-Gao HTS 100.4, HSV replic up inactive, PKD1 kinase inh 1.3 and HSV replic up primary fold 1.17.
CC(NCc1ccc(S(N)(=O)=O)cc1)C(=O)N1CCc2ccccc21 (stereo unspecified) was read as RGS16-Gao HTS 92.8, HSV replic up inactive and HSV replic up primary fold 0.91.
For COc1cc2c(cc1NC(=O)COC(=O)c1ccccc1)oc1ccccc12 the results were RGS16-Gao HTS 98.8, INS promoter inh -20.0, HSV replic up inactive, PKD1 kinase inh -2.7, INS promoter inh cell count 195.9 and HSV replic up primary fold 0.89.
`Cc1ccc(NS(=O)(=O)c2cccc(C(=O)Nc3cc(C)on3)c2)cc1` gave RGS16-Gao HTS 104.9, GALR2 ag -1.9, INS promoter inh -368.8, HSV replic up inactive, PKD1 kinase inh 9.9, INS promoter inh cell count 55.9 and HSV replic up primary fold 1.12.
`O=[N+]([O-])c1ccc(S(=O)(=O)Nc2nc3ccccc3nc2Nc2ccccc2)cc1` gave RGS16-Gao HTS 121.8, INS promoter inh -45.5, HSV replic up inactive, PKD1 kinase inh -2.5, INS promoter inh cell count 109.0 and HSV replic up primary fold 1.01.
COc1ccc(C(=O)Nc2ccc3cn[nH]c3c2)c(OC)c1 was read as RGS16-Gao HTS 99.4, INS promoter inh 45.0, HSV replic up inactive, PKD1 kinase inh 0.7, INS promoter inh cell count 59.7 and HSV replic up primary fold 0.84.
CCOC(=O)c1c(NC(=O)C2CC(Cl)=CCC2C(=O)O)sc2c1CC(C)(C)OC2 (stereo unspecified) was read as RGS16-Gao HTS 108.8, INS promoter inh 5.0, HSV replic up inactive, PKD1 kinase inh -5.6, INS promoter inh cell count 93.5 and HSV replic up primary fold 0.98.
Screening CC(C)(CSc1ccccn1)NS(=O)(=O)c1ccccc1 returned RGS16-Gao HTS 219.3, GALR2 ag -1.2, INS promoter inh 18.8, HSV replic up inactive, PKD1 kinase inh -6.4, INS promoter inh cell count 62.8 and HSV replic up primary fold 1.04.
`CCN(CC)S(=O)(=O)c1cccc(C(=O)Nc2ccc3c(c2)OCO3)c1` gave RGS16-Gao HTS 101.9, INS promoter inh 53.3, HSV replic up inactive, PKD1 kinase inh 1.1, INS promoter inh cell count 119.6 and HSV replic up primary fold 0.89.
COC(=O)c1ccc(NC(=O)CN2CCN(c3ccc(Cl)cc3)CC2)cc1 was read as RGS16-Gao HTS 102.7, GALR2 ag -1.7, HSV replic up inactive, PKD1 kinase inh -6.6 and HSV replic up primary fold 0.98.
`COCCn1c(COC)nc2ccccc21` gave RGS16-Gao HTS 99.9, GALR2 ag 0.2, INS promoter inh 28.6, HSV replic up inactive, PKD1 kinase inh -9.2, INS promoter inh cell count 74.6 and HSV replic up primary fold 0.96.

Continued, overlapping the part above by three compounds.
`CCN(CC)S(=O)(=O)c1cccc(C(=O)Nc2ccc3c(c2)OCO3)c1` gave RGS16-Gao HTS 101.9, INS promoter inh 53.3, HSV replic up inactive, PKD1 kinase inh 1.1, INS promoter inh cell count 119.6 and HSV replic up primary fold 0.89.
COC(=O)c1ccc(NC(=O)CN2CCN(c3ccc(Cl)cc3)CC2)cc1 was read as RGS16-Gao HTS 102.7, GALR2 ag -1.7, HSV replic up inactive, PKD1 kinase inh -6.6 and HSV replic up primary fold 0.98.
`COCCn1c(COC)nc2ccccc21` gave RGS16-Gao HTS 99.9, GALR2 ag 0.2, INS promoter inh 28.6, HSV replic up inactive, PKD1 kinase inh -9.2, INS promoter inh cell count 74.6 and HSV replic up primary fold 0.96.
O=c1c2c([N+](=O)[O-])cc([N+](=O)[O-])cc2sn1-c1ccc(Br)cc1 was read as RGS16-Gao HTS 66.0, GALR2 ag -1.1, INS promoter inh 32.1, HSV replic up inactive, PKD1 kinase inh -3.9, INS promoter inh cell count 89.2 and HSV replic up primary fold 0.67.
`S=c1[nH]nc(Cn2c(-c3ccccn3)nc3ccccc32)n1-c1ccc2c(c1)OCCO2` gave RGS16-Gao HTS 119.1, HSV replic up inactive and HSV replic up primary fold 1.01.
`CN1C(=S)SC(/[N+]([O-])=C/c2cccnc2)C1(C)C` (stereo unspecified) gave RGS16-Gao HTS 92.4, GALR2 ag 0.1, INS promoter inh -30.0, HSV replic up inactive, PKD1 kinase inh -6.0, INS promoter inh cell count 91.9 and HSV replic up primary fold 0.91.
Screening Cc1cc(C)c2ccc(N)nc2c1O returned RGS16-Gao HTS 102.3, GALR2 ag -1.5, HSV replic up inactive, PKD1 kinase inh -7.2 and HSV replic up primary fold 0.9.
`Cc1cc2nc(-c3ccc(SCC(=O)Nc4ccc(S(=O)(=O)NC5CC5)cc4)nc3)[nH]c2cc1C` gave RGS16-Gao HTS 109.9, GALR2 ag -0.1, INS promoter inh 24.2, HSV replic up inactive, PKD1 kinase inh 6.6, INS promoter inh cell count 141.3 and HSV replic up primary fold 0.82.
For CC(C)Oc1ccc2ccccc2c1C=O the results were RGS16-Gao HTS 102.4, GALR2 ag -3.9 and PKD1 kinase inh -5.2.
Screening CN1CCN(c2ccc(S(=O)(=O)N3CCCCC3)cc2[N+](=O)[O-])CC1 returned RGS16-Gao HTS 102.8, INS promoter inh 16.7, HSV replic up inactive, PKD1 kinase inh 3.3, INS promoter inh cell count 122.8 and HSV replic up primary fold 0.94.
For O=C(N/N=C/c1ccc2c(c1)OCO2)c1ccccn1 the results were RGS16-Gao HTS 91.2, GALR2 ag -2.6, INS promoter inh 46.4, HSV replic up inactive, PKD1 kinase inh -15.0, INS promoter inh cell count 78.1 and HSV replic up primary fold 0.9.
`COc1cc(C(=O)Nc2ccc(N(C)C)cc2)c([N+](=O)[O-])cc1OC` gave RGS16-Gao HTS 96.5, HSV replic up inactive, PKD1 kinase inh -5.6 and HSV replic up primary fold 1.04.
`CNC(=O)c1ccccc1F` gave RGS16-Gao HTS 99.9, GALR2 ag -0.5, INS promoter inh -12.9, HSV replic up inactive, PKD1 kinase inh 0.5, INS promoter inh cell count 87.2 and HSV replic up primary fold 0.96.
`CNC(=O)C1=NCCCc2cc(OC)c(OC)cc21` gave RGS16-Gao HTS 106.4, GALR2 ag -1.1, INS promoter inh 3.7, HSV replic up inactive, PKD1 kinase inh -8.1, INS promoter inh cell count 120.0 and HSV replic up primary fold 0.95.
`O=C(NCC1CCCO1)c1nn2c(c1Cl)NC(c1ccc(F)cc1)CC2C(F)(F)F` (stereo unspecified) gave RGS16-Gao HTS 97.9, GALR2 ag -2.4, INS promoter inh -3.0, HSV replic up inactive, PKD1 kinase inh -9.2, INS promoter inh cell count 121.0 and HSV replic up primary fold 0.97.
`Cn1c(-c2nnn(-c3ccc(F)cc3)n2)cc2ccccc21` gave RGS16-Gao HTS 101.8, HSV replic up inactive, PKD1 kinase inh -3.8 and HSV replic up primary fold 0.96.
CCCCc1nc2ccccc2[nH]1 was read as RGS16-Gao HTS 101.2, INS promoter inh 89.2*, HSV replic up inactive, PKD1 kinase inh -2.5, INS promoter inh cell count 143.4* and HSV replic up primary fold 1.12.
COC(=O)/C=C/c1ccc(-n2ccnc2)cc1 was read as RGS16-Gao HTS 108.1, HSV replic up inactive, PKD1 kinase inh -6.9 and HSV replic up primary fold 0.87.
Cc1cc(C)nc(NN2C(=O)/C(=C/c3ccccc3)SC2=S)n1 was read as RGS16-Gao HTS 96.2, GALR2 ag -1.3, HSV replic up inactive, PKD1 kinase inh 7.7 and HSV replic up primary fold 0.88.
`CN(CCO)c1nc(N)c(C#N)c(CC#N)c1C#N` gave RGS16-Gao HTS 103.0, HSV replic up inactive and HSV replic up primary fold 0.94.
Screening O=C(/C=C/c1ccc([N+](=O)[O-])cc1)NCc1ccco1 returned RGS16-Gao HTS 99.9, GALR2 ag -0.1, HSV replic up inactive, PKD1 kinase inh 5.1 and HSV replic up primary fold 1.2.
For Cn1cnnc1SCC(=O)Nc1ccccc1F the results were RGS16-Gao HTS 101.2, HSV replic up inactive, PKD1 kinase inh -2.2 and HSV replic up primary fold 1.03.
Screening CCS(=O)(=O)c1ccc(O)c(NC(=O)Nc2cccc3ccccc23)c1 returned RGS16-Gao HTS 92.2, HSV replic up inactive and HSV replic up primary fold 1.14.
Cc1cc(C(F)F)n2nc(C(=O)Nc3ccc(S(=O)(=O)N4CCCCCC4)cc3)nc2n1 was read as RGS16-Gao HTS 103.0, GALR2 ag -2.2, INS promoter inh 100.0*, HSV replic up inactive, PKD1 kinase inh -10.2, INS promoter inh cell count 92.5* and HSV replic up primary fold 0.98.
For CCC(c1nnnn1CCc1ccccc1)N1CCN(c2ccc(OC)cc2)CC1 (stereo unspecified) the results were RGS16-Gao HTS 104.9, GALR2 ag -0.8, INS promoter inh 3.2, HSV replic up inactive, PKD1 kinase inh 5.4, INS promoter inh cell count 58.5 and HSV replic up primary fold 0.9.
`CCS(=O)(=O)n1nc(-c2ccccc2)nc1NCc1ccco1` gave RGS16-Gao HTS 101.8, GALR2 ag -1.0, INS promoter inh -260.0, HSV replic up inactive, PKD1 kinase inh 6.4, INS promoter inh cell count 57.1 and HSV replic up primary fold 0.96.
For Cc1ccccc1NC(C)C(=O)N/N=C/c1ccccc1OCc1cccc(Br)c1 (stereo unspecified) the results were RGS16-Gao HTS 101.8, GALR2 ag -1.4, HSV replic up inactive, PKD1 kinase inh 11.1 and HSV replic up primary fold 0.86.
For O=C(N/N=C/c1ccc(O)cc1)Nc1cccc2nsnc12 the results were RGS16-Gao HTS 91.9, HSV replic up inactive, PKD1 kinase inh 14.5 and HSV replic up primary fold 0.64.
Screening NC(=S)N=Nc1c(O)n(Cc2ccc(F)cc2)c2ccccc12 returned RGS16-Gao HTS 103.5, GALR2 ag -0.4, HSV replic up inactive, PKD1 kinase inh -0.3 and HSV replic up primary fold 0.91.
For Cc1ccc2nc3n(c(=O)c2c1)CCCCC3 the results were RGS16-Gao HTS 105.5, GALR2 ag -2.4, INS promoter inh 15.3, HSV replic up inactive, PKD1 kinase inh -8.3, INS promoter inh cell count 77.3 and HSV replic up primary fold 0.963.
CCCCn1nnnc1SCC(=O)c1cc(Cl)ccc1OC was read as RGS16-Gao HTS 103.1, GALR2 ag -3.7, INS promoter inh -2.9, HSV replic up inactive, PKD1 kinase inh 1.1, INS promoter inh cell count 70.7 and HSV replic up primary fold 0.96.
`O=C(Nc1cccnc1)c1cccnc1Cl` gave RGS16-Gao HTS 109.2, GALR2 ag -1.8, INS promoter inh 35.5, HSV replic up inactive, PKD1 kinase inh -0.8, INS promoter inh cell count 96.0 and HSV replic up primary fold 0.93.
For Cc1cc(C)n2nnnc2n1 the results were RGS16-Gao HTS 96.2, HSV replic up inactive and HSV replic up primary fold 0.8.
For O=C(O)C(Cc1c[nH]c2ccccc12)N1C(=O)c2ccccc2C1=O (stereo unspecified) the results were RGS16-Gao HTS 103.2&95.3, HSV replic up inactive and HSV replic up primary fold 0.97&1.06.
Screening O=C(CCc1ccccc1)c1nnc(-c2ccccc2)o1 returned RGS16-Gao HTS 100.0, HSV replic up inactive, PKD1 kinase inh 1.2 and HSV replic up primary fold 0.99.
Cc1ccc(-n2nc3ccc(NC(=O)/C=C/c4ccco4)cc3n2)cc1 was read as RGS16-Gao HTS 90.3, GALR2 ag -0.7, INS promoter inh -42.3, HSV replic up inactive, PKD1 kinase inh -11.5, INS promoter inh cell count 120.4 and HSV replic up primary fold 0.74.
`CC(C)CSC1=NSC2=NC(=O)/C(=C\c3cccs3)C(=N)N12` gave RGS16-Gao HTS 103.8, GALR2 ag -0.5, INS promoter inh -24.1, HSV replic up inactive, PKD1 kinase inh -5.6, INS promoter inh cell count 124.6 and HSV replic up primary fold 1.
For Cc1ccc(C(=O)N2CCC3(CC2)Oc2ccc(Cl)cc2C(=O)C32CC(c3ccc(Cl)cc3)=NO2)s1 (stereo unspecified) the results were RGS16-Gao HTS 107.0, HSV replic up inactive and HSV replic up primary fold 0.81.
